MLL AF4-AF9 inh: blocks AF4 peptide binding to human AF9; actives 0.47% (n = 350,000); P42568; inhibition, % at 10 µM; AlphaScreen, biotin-AF4 peptide binding to FLAG-AF9; AID 651704;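 active means every replicate reaching a set inhibition limit, whatever the replicate mean, cut at about 25% in these data; inconclusive means mean inhibition reaches that limit but some replicates miss it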;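 further: 0% = plate neutral control median and 100% = total signal loss; the record names both 10 and 1 µM as test concentration; the first replicate is given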
Target sequence (P42568 whole entry, looked up): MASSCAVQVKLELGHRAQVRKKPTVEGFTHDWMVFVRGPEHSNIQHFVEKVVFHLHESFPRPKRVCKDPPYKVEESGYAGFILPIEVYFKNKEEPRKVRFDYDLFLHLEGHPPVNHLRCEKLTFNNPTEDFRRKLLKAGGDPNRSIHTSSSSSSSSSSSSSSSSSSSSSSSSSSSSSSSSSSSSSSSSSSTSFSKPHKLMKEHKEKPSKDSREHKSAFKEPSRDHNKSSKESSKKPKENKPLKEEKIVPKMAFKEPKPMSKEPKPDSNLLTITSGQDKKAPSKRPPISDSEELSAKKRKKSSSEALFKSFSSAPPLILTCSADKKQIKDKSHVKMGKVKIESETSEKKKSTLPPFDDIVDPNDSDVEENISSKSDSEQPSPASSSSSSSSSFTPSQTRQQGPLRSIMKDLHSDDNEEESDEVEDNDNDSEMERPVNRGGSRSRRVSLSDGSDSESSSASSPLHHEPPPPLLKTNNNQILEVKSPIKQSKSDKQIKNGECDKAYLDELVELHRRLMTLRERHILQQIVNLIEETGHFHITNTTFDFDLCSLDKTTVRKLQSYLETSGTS
ALR H2O2 inh: inhibitors of human sulfhydryl oxidase ALR; AID 485317; inhibition, % (no concentration beside the values); actives 3.8% (n = 290,000); purified ALR, DTT oxidation, H2O2 HRP-luminol luminescence; P55789;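 active means mean and each replicate at 75% or more; inconclusive means only one of the two met; inactive means neither met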;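 further: stock transfer was 7.5 nL into about 7.5 µL; 0% = neutral wells and 100% = wells with inactivated enzyme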
Ecoli rRNA inh: selective bacterial rRNA inhibition in E. coli; GFP signal change (wild-type ribosome), % (no concentration beside the values); actives 1.6% (n = 350,000); AID 720706; E. coli WT GFP vs humanized-ribosome RFP mutants, fluorescence, 24 h; active compounds read low; DMSO median 0, no signal -100;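 active means significant combined selectivity score with lowered wild-type GFP, culture density cut under 30%, mutant RFP and density less affected; inactive means any of these conditions unmet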; further: one replicate is shown; some compounds called inactive have numbers as strong as hits
Vif A3G: HIV-1 Vif–A3G interaction blockers – biochemical, TR-FRET, GST-Vif 1-94, biotin-A3G peptide, dose response retest, primary screen (AID 1117319) | TR-FRET GST-Vif / biotin-A3G peptide binding; higher % means a stronger effect; test concentration not given here; strong numbers were not always called active | inhibition, %, or IC50 in µM where a hit was titrated | actives 0.57% (n = 260,000);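 active means above the screen mean plus three standard deviations and confirmed in dose response; inconclusive means results disagree or hit not tested in dose response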;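 further: Vif residues 1-94 fused to GST binding biotinylated APOBEC3G peptide 110-148; 0% = full assay without inhibitor and 100% = GST in place of GST-Vif; retest series ran down from 100 µM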
HNF4A DNA FP: change in binding of human HNF4 alpha to DNA; P41235; HNF4a-FITC DNA binding, fluorescence polarization, 1 h; activity change, % at 10 µM; actives 0.3% (n = 360,000); AID 1224865; in the data active means activity change above about 30%, passing the limit was not always enough;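 further: controls were the assay level and a saturating level of protein; the project sought stronger binding though the title names inhibitors; some compounds called inactive have numbers as strong as hits; positive values seem to mean higher polarization but the record does not say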
Target sequence (P41235 whole entry, looked up): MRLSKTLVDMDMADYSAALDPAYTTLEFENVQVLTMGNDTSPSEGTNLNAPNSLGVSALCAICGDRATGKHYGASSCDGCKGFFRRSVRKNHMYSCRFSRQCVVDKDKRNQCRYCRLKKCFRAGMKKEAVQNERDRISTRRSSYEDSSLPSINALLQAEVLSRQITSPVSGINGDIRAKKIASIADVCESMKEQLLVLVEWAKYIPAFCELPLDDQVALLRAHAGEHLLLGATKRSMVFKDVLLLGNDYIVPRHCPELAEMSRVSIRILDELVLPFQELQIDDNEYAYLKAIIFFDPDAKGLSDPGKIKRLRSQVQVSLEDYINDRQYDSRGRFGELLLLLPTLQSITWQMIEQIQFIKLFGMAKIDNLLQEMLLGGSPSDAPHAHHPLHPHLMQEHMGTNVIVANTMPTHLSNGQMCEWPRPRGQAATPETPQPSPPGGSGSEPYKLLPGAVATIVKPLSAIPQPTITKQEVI
FGF22 binding: FGF22 (human) thermal shift binding; recombinant FGF22 thermal shift, SYPRO orange fluorescence; percent of sucrose octasulfate shift, DMSO zero; calls only at 9.99 µM; actives 1.5% (n = 340,000);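 active means melting point raised past a set limit in the mean and every replicate; inconclusive means no clear call; three in four hits are not shown here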
Ecoli growth: blocks Escherichia coli growth; OD600 absorbance (no concentration beside the values); actives 0.21% (n = 330,000); AID 1053175; OD600, 23 h; active compounds read low;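 active means OD600 absorbance below the run mean of sample wells minus 3.6 SD, in any replicate, cut at about 0.56 in these data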;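 further: stock transfer was 300 nL into about 60 µL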
Ecoli rRNA inh OD600: second read-out of Ecoli rRNA inh, no call of its own (marks repeat the call); OD600 change, %; measured here: OD600 growth;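 optical density of the mix in the first replicate; 0 = DMSO median and -100 = no signal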
Ecoli rRNA inh RFP: second read-out of Ecoli rRNA inh, no call of its own (marks repeat the call); RFP signal change, %; measured here: RFP humanized mutant strains;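 first replicate; 0 = DMSO median and -100 = no signal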
The depositor's hits bear a star; i = inactive; ? = inconclusive; . = no result given.

The line under a structure holds: MLL AF4-AF9 inh | ALR H2O2 inh | Ecoli rRNA inh | Ecoli rRNA inh OD600 | Ecoli rRNA inh RFP | Vif A3G | HNF4A DNA FP | FGF22 binding | Ecoli growth
- N#Cc1ccc(C(=O)Nc2cccc3ncccc23)c(F)c1
→ . | -9 | . | . | . | -7% | 2.3 | . | 0.63
- COCc1cc(C)nc(N2CCN(Cc3ccccc3)CC2)c1C#N
→ . | -9 | . | . | . | 4% | -1.3 | . | 0.7
- COc1ccc(S(=O)(=O)NCCOc2ccccc2)cc1F
→ -2.4 | 5 | 5 | 16 | 1.0 | 5% | -0.5 | i | 0.69
- O=C1CCCN1S(=O)(=O)c1ccccc1
→ -1.0 | 1 | 8 | 8 | -0.6 | 6% | -1.3 | i | .
- CCC(=O)N(C)C[C@@H]1Oc2ncc(C3=CCCC3)cc2C(=O)N([C@@H](C)CO)C[C@H]1C
→ -0.3 | . | 1 | -1 | -4.1 | . | . | i | .
- O=C(CCN1CCN(c2ccccc2)CC1)N/N=C/c1ccccc1O
→ 0.3 | 84* | -6 | 4 | -3.6 | -5% | 2.8 | i | .
- Cc1c(NC(=O)C(C)Oc2ccc(Br)cc2)c(=O)n(-c2ccccc2)n1C (centres undefined)
→ 0.2 | 2 | -2 | 2 | -2.3 | -7% | 3.9 | i | 0.65
- COc1ccc(CN2CCC[C@]3(N[C@H](c4ccc(C(F)(F)F)cc4)[C@@H]4C(=O)N(C)C(=O)[C@@H]43)C2=O)cc1
→ -0.4 | . | 1 | -16 | -3.8 | 0% | 0.0 | i | .
- COCCNC(=O)CN(Cc1ccco1)C(=O)CCC(=O)Nc1nccs1
→ -1.7 | -1 | 10 | 4 | -0.6 | . | -1.4 | i | 0.69
- COc1ccc(C)cc1NC(=O)c1cc(-c2ccccc2)nc2c1cnn2C(C)C
→ ? | -1 | 1 | 8 | 2.3 | -3% | 0.8 | i | 0.71
- O=C(NCC[C@@H]1CC[C@H](NS(=O)(=O)c2ccccc2F)[C@@H](CO)O1)c1ccc(F)cc1
→ 0.7 | . | 0 | -3 | 0.1 | . | . | i | .
- Cc1nc2c(C(=O)Nc3ccc(N4CCCC(O)C4)cc3)snc2c(=O)[nH]1 (centres undefined)
→ 0.7 | -10 | 4 | 7 | -0.9 | 0% | -6.8 | i | 0.7
- CCN(CC)C(=O)C1=C(C)N(CCCOC)C(=O)C(CC(=O)NCCCCc2ccccc2)C1 (centres undefined)
→ 1.3 | . | 5 | 7 | 6.3 | 4% | 2.7 | i | .
- C[C@@H]1CN([C@@H](C)CO)C(=O)c2cccc(NS(=O)(=O)c3cccs3)c2O[C@H]1CN(C)C(=O)NC1CCCCC1
→ -3.0 | . | -4 | 2 | -2.7 | . | . | i | .
- COc1cc(C(c2c(C)[nH][nH]c2=O)c2c(C)[nH][nH]c2=O)cc([N+](=O)[O-])c1O
→ -7.1 | 13 | -10 | -2 | -5.4 | -3% | -5.7 | . | 0.67
- Cc1ccc(Cn2c(O)c(N=NC(=S)Nc3ccccc3F)c3cc(S(=O)(=O)N4CCOCC4)ccc32)cc1
→ 3.1 | . | 10 | 8 | 4.6 | . | 1.7 | i | 0.69
- CC(=O)N1CCCCN2[C@H](CO)[C@@H](c3ccc(-c4ccc(F)cc4)cc3)[C@H]2C1
→ 0.9 | . | 3 | 8 | -1.2 | . | . | i | .
- COc1cccc(N2CCN(C(=O)c3ccc(CS(=O)c4ccc(Cl)cc4)o3)CC2)c1 (centres undefined)
→ 5.0 | 88* | -22 | -19 | -3.9 | . | 2.8 | i | 0.71
- CC1CC(C)CN(C(=O)COC(=O)COc2ccc(C#N)cc2)C1 (centres undefined)
→ 1.0 | -4 | 3 | 3 | -2.8 | -1% | -1.6 | i | 0.71
- COc1ccc(/C=C/C(=O)Nc2cc(C)nn2-c2nc3ccccc3[nH]2)cc1
→ 3.7 | 6 | 12 | 9 | 0.6 | . | -0.7 | i | 0.72

Ordered by the number under Ecoli growth (smallest number first): some entries from above.
SMILES	MLL AF4-AF9 inh	ALR H2O2 inh	Ecoli rRNA inh	Ecoli rRNA inh OD600	Ecoli rRNA inh RFP	Vif A3G	HNF4A DNA FP	FGF22 binding	Ecoli growth
COc1ccc(S(=O)(=O)NCCOc2ccccc2)cc1F	-2.4	5	5	16	1.0	5%	-0.5	i	0.69
COc1ccc(C)cc1NC(=O)c1cc(-c2ccccc2)nc2c1cnn2C(C)C	?	-1	1	8	2.3	-3%	0.8	i	0.71
COc1ccc(/C=C/C(=O)Nc2cc(C)nn2-c2nc3ccccc3[nH]2)cc1	3.7	6	12	9	0.6	.	-0.7	i	0.72

Next compounds
The line under a structure holds: MLL AF4-AF9 inh | ALR H2O2 inh | Ecoli rRNA inh | Ecoli rRNA inh OD600 | Ecoli rRNA inh RFP | Vif A3G | HNF4A DNA FP | FGF22 binding | Ecoli growth
- C=CCOn1c(C)c(C(C)=O)c2c3nonc3ccc21
→ . | -16 | . | . | . | 1% | -3.2 | . | 0.7
- CCC(=O)Nc1ccc2c(c1)OC[C@@H](C)N(C(=O)NC1CCCCC1)C[C@@H](C)[C@H](OC)CN(C)C2=O
→ -2.0 | . | 0 | -5 | 0.3 | . | . | i | .
- CCOC(=O)C1(CC)NC(c2ccco2)C2C(=O)N(c3ccc(C)cc3)C(=O)C21 (centres undefined)
→ . | . | . | . | . | 1% | 0.7 | . | 0.69
- Cn1c(CNC(=O)c2ccccc2)nnc1SCC(=O)N1CCN(c2ccccc2)CC1
→ . | 0 | . | . | . | -1% | 3.4 | . | 0.73
- COc1ccc(S(=O)(=O)NCCc2cc3ccc(C)c(C)c3[nH]c2=O)cc1
→ 0.2 | 2 | 1 | -6 | 0.1 | . | -1.6 | i | 0.7
- COc1ccc(C2=NN(c3nc(C)cc(C)n3)C(=O)C2)cc1
→ 0.0 | -7 | 12 | 6 | 1.0 | 14% | -7.8 | i | 0.69
- O=C(CN1CCN(Cc2cccc(F)c2)CC1)NCc1ccccc1
→ -0.9 | -3 | 8 | 9 | 3.0 | . | 4.8 | i | 0.64
- O=C(Nc1ccc2oc(-c3ccncc3)nc2c1)c1ccc(Br)o1
→ 0.1 | -7 | -27 | -37 | -10 | . | 1.5 | i | 0.7
- CCOC(=O)c1c(N)nn(C(=O)C(C)(C)C)c1-c1ccccc1
→ . | -2 | . | . | . | 9% | -4.8 | . | 0.71
- CCCCCCCCN1C(=O)[C@@H](CC(=O)NCC23CC4CC(CC(C4)C2)C3)C[C@@]2(C(=O)OC)C1=C[C@H](C(C)(C)C)O[C@@H]2C
→ -2.3 | . | 7 | 7 | 1.3 | . | . | i | .
- Cc1ccc(S(=O)(=O)Nc2cccc3c2O[C@H](CN(C)Cc2ccc(Oc4ccccc4)cc2)[C@@H](C)CN([C@H](C)CO)C3=O)cc1
→ -1.5 | . | 1 | 3 | -2.0 | . | . | i | .
- Cn1c(=O)c2c(nc(N3CCc4ccccc4C3)n2Cc2ccccc2F)n(C)c1=O
→ . | 0 | . | . | . | 15% | 0.1 | . | 0.71
- CC(C)C[C@H](NC(=O)NCc1ccc(Cl)cc1)C(=O)O
→ . | -3 | . | . | . | 15% | 0.0 | . | 0.72
- COC(=O)C1=C(C)N(CC2CC2)C(=NCc2cccc(Cl)c2)N[C@H]1c1ccccc1
→ . | -2 | -6 | -30 | 6.9 | . | 13 | i | .
- COc1ccc(C2CC(O)(c3ccccc3)Oc3cc(OC)cc(OC)c32)cc1 (centres undefined)
→ . | . | . | . | . | 1% | -4.3 | . | 0.71
- O=C(Nc1ccccc1Cl)C1CCCN(c2ncnc3c2nc2n3CCCCC2)C1 (centres undefined)
→ 5.5 | -6 | -30* | -24* | 4.0* | . | 0.6 | i | 0.7
- COc1ccc(C(CNC(=O)c2cccc(NS(=O)(=O)c3ccccc3)c2)N(C)C)cc1 (centres undefined)
→ 2.4 | -5 | 13 | 5 | -0.4 | . | 0.4 | i | 0.68
- CC(C)CN(C(=O)c1ccc(F)cc1F)c1c(N)n(CC(C)C)c(=O)[nH]c1=O
→ -0.4 | -13 | 10 | 15 | -2.0 | . | -1.1 | i | 0.73
- C(=C\c1ccncc1)/c1ccccc1
→ 5.9 | 2 | -1 | 3 | -2.0 | 2% | -1.6 | i | 0.7
- C[C@@H]1CN([C@@H](C)CO)C(=O)c2cccc(NC(=O)Nc3ccc4c(c3)OCO4)c2O[C@H]1CN(C)CC1CC1
→ 1.1 | . | -2 | 5 | -0.7 | . | . | i | .
- CCCC(=O)NC(c1ccc(Cl)cc1Cl)c1ccc2cccnc2c1O (centres undefined)
→ 4.0 | -8 | 1 | -2 | -12 | . | 0.0 | i | .
- O=C(NCCCN1CCOCC1)c1ccc2c(c1)N(Cc1cccc(Cl)c1)C(=O)CS2
→ -3.8 | -5 | 7 | 7 | 5.1 | . | 1.7 | i | 0.67
- O=C(COC(=O)c1ccccc1F)NC1CC1
→ 2.6 | 1 | 5 | 9 | -2.5 | -4% | 1.3 | i | 0.68
- Brc1cccc(-c2nnco2)c1
→ . | -7 | . | . | . | -2% | 0.8 | . | 0.72
- C[C@H](CO)N1C[C@H](C)[C@H](CN(C)C)Oc2ccc(NC(=O)Nc3ccc(C(F)(F)F)cc3)cc2C1=O
→ 3.6 | . | 0 | 5 | -1.4 | . | . | i | .
- Cc1ccc(C(=O)c2ccc(O)cc2)cc1C
→ . | . | . | . | . | -2% | -4.8 | . | 0.66
- CC(=O)c1cnc2c(-c3ccc(Cl)cc3)c(C)nn2c1C
→ . | . | . | . | . | 32% | 1.6 | . | 0.75
- CN(C)S(=O)(=O)c1cccc(C(=O)NCC2CCCCC2)c1
→ 1.4 | 0 | 0 | -1 | -1.3 | . | -0.5 | i | 0.7
- O=C(N/N=C/c1cccs1)c1cnccn1
→ . | -4 | . | . | . | 5% | 0.0 | . | .
- CC(C)(C)[C@@H]1COC(=O)[C@H](Cc2ccc(F)cc2)CC/C=C\C[C@H](CC(=O)N(CCO)Cc2ccccc2)C(=O)N1
→ -2.6 | -5 | -7 | -38 | 27 | . | -0.5 | i | .
- Cc1ccc(C)c(OCCSc2nnc(-c3cccnc3)n2N)c1
→ . | -16 | . | . | . | -6% | 1.8 | . | 0.71
- CC(NC(=O)/C(C#N)=C/c1cn(-c2ccccc2)nc1-c1ccc(F)cc1)c1ccccc1 (centres undefined)
→ 0.2 | -9 | . | . | . | 10% | -0.6 | i | 0.72
- CCOc1ccc(/C=N/N2CCN(Cc3ccccc3)CC2)cc1
→ 2.6 | . | 8 | 3 | -2.6 | . | -0.2 | i | .
- CCOc1ccc(C(=O)CCC(=O)NNC(=O)c2ccncc2)cc1
→ -1.8 | -13 | 3 | 4 | -2.0 | -2% | 3.2 | i | 0.69
- O=S(=O)(Nc1ccccc1N1CCCCC1)c1ccc(F)cc1F
→ -2.8 | 40 | -19 | -13 | 0.5 | . | -0.7 | i | 0.69
- FC(F)(F)c1cccc(Oc2cc(C(F)(F)F)nc(-c3ccccn3)n2)c1
→ . | -9 | . | . | . | 0% | 4.2 | . | 0.72
- C[C@@H]1CN([C@H](C)CO)C(=O)c2cc(NC(=O)CCCCCC(=O)Nc3ccccc3N)ccc2O[C@@H]1CN(C)S(=O)(=O)c1cccs1
→ -3.3 | . | -10 | -6 | -0.5 | . | . | i | .
- CN(C(=O)c1ccc(NC(=O)Cc2ccc([N+](=O)[O-])cc2)cc1)C1CCCC1
→ 2.1 | 2 | -1 | -7 | -6.2 | . | -0.3 | i | 0.61
- COCC(=O)N1C[C@H]2CON(C)[C@H]2C[C@H]1c1cccc(-c2ccc(C#N)cc2)c1
→ -2.8 | . | 9 | 23 | -3.2 | . | 0.7 | i | .

High-throughput results: PubChem, several laboratories

An excerpt, so the mix of outcomes need not match the whole.
